# Bioassay records as filed in PubChem.
# Menin MLL FP FL: inhibitors of human menin-MLL interaction, wild-type MLL peptide; Fluorescence polarization, fluorescein-MLL peptide displacement from menin; FP activity change, % at 61.4 µM; 290,000 tested, under 10 active; inconclusive = falling polarisation curve, or a change in total fluorescence; inactive = total fluorescence flat and polarisation flat or rising; no compound was filed as active; the % refers to the polarisation; negative = inhibition;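 further: % of control where 0% means no effect; inhibitors lower the polarisation; unlabelled MLL peptide was the positive control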
# TRPML1 agonist: agonists of human TRPML1 channel | Q9GZU1 | TRPML1-expressing cells, Ca2+ dye fluorescence, FDSS; host cell line not named in the record; reference of the full effect not given here | activation, % (test concentration not listed) | 0.12% of 410,000 active | AID 624414; in the data active = activation above about 50%; inconclusive = about 30% to 50%; inactive = below about 30%; further: 0% is about no effect; the text of the record puts the active cut at 80%
# Target sequence (Q9GZU1 whole entry, looked up): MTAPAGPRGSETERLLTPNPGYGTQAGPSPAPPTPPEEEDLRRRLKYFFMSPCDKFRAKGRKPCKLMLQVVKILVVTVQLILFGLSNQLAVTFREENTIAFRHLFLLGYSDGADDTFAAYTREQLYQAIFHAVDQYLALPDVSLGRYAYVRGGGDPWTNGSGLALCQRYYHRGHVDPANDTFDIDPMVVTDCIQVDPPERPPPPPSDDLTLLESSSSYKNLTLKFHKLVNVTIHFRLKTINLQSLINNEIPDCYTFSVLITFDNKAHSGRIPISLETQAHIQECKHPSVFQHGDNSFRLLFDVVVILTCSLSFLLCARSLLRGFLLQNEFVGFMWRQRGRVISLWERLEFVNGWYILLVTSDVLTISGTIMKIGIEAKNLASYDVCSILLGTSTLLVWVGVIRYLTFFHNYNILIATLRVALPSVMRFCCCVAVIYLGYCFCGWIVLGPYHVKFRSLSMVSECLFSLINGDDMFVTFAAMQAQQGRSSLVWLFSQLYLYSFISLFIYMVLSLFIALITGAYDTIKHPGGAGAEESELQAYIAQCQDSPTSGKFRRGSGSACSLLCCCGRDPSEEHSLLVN
#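 Tet-induced TRPML1-DL cells, 1,500 per well, cultured overnight, were loaded with a no-wash Ca2+ dye for 45–90 min. Calcium fluorescence was recorded on the FDSS for 110 s after compound addition, before the EC80 agonist (4 uM 54-4) was added.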
# ClpP mod: qHTS Assay for Activators of ClpP | 1.9% of 340,000 active | ATP-dependent Clp protease proteolytic subunit (Bacillus subtilis (strain 168)), P80244 | purified B. subtilis ClpP, FRET peptide cleavage, 20 min | Potency, µM (doses to about 57.5 µM), without a hit: at the top dose activity change, negative = active; active = well fitted falling curve with a large enough effect; inconclusive = small, poorly fitted or top-dose-only effect; inactive = no such curve, though single readings can be large or run the other way; further: potency means the concentration at half of the fitted maximal effect; the source files actives as falling curves though it sought activators and does not explain the sign; nearly all actives have a fitted effect of over 65% in size; many hits overshoot -100%
# Target sequence (P80244 whole entry, looked up): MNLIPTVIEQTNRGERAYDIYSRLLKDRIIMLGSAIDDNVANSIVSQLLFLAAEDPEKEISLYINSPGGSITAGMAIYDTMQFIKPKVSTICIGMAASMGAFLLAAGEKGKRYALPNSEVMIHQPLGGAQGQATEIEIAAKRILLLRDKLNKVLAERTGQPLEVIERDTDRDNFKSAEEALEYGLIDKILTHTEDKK
#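 Buffer: 100 mM Tris/HCl pH8, 100 mM KCl, 0.05% low protease BSA, 2.5% glycerol, 0.01% Tween-20. ClpP 10 microg/mL final; 20 min RT; delta FRET normalized to ADEP and DMSO controls.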
# gsp antagonist: antagonists of gsp mutant (McCune-Albright syndrome); AID 624288; 0.4% of 340,000 active; gsp-mutant cells, cAMP HTRF, 30 min; control for the full effect not named in the record; Potency, µM (titrated, usually from 76.9 µM), for the others: at the highest dose activity change, negative = inhibition, hits mostly inhibitors; active = falling curve of any shape with a large fitted effect; inconclusive = falling curve, mostly with a smaller effect; inactive = flat or rising curve; cell line not stated here;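 further: intracellular cAMP measured with PDE inhibitor Ro 20-1724 present during compound exposure; potency means the concentration at half of the fitted maximal effect; on the % scale 0 is the no-effect control and ±100 the full control effect; nearly all actives have a fitted effect of over 65% in size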
#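 G418-selected cells were plated in DMEM/10% FBS for 16-24 h at 37C, then treated with compounds plus the PDE inhibitor […] (300 uM solution added) for 30 min at 37C. Intracellular cAMP was measured by HTRF after 30 min lysis at room temperature.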
# TRPML1 inh: inhibitors of human TRPML1 channel | Q9GZU1 | TRPML1-inducible cells, Ca2+ dye fluorescence, FDSS; stronger effect = lower value; inhibition of EC80 agonist-evoked calcium signal | activity change, negative = inhibition, % (test concentration not listed) | 0.02% of 390,000 active | AID 624415; in the data active means activity change below about -50%; inconclusive means about -30% to -50%; inactive means above about -30%;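 further: stimulus is agonist 54-4 at its EC80 concentration; on the % scale 0 is the no-effect control and ±100 the full control effect; compound concentration not given in the record; the text of the record puts the active cut at -80%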
#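 TRPML1-DL cells, Tet-induced overnight (~16 h, 37 °C) at 1,500 cells/well, were loaded with Ca8 no-wash dye plus quencher for 45-90 min at room temperature. Compounds were pinned during FDSS kinetic reading; agonist 54-4 at EC80 (4 uM final) then added.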
# gsp ag: activates gsp, the McCune-Albright syndrome mutation | 0.13% of 340,000 active | Potency, µM (doses to about 76.9 µM), without a hit: at the highest dose activation (cAMP increase), most hits filed as activators | AID 624287 | gsp mutant cells, cAMP HTRF, 30 min; control for the full effect not named in the record; active = well fitted activation curve with a large enough effect; inconclusive = small, poorly fitted or top-dose-only effect, or another doubt; inactive = no such curve, though single readings can be large or run the other way; cell line not stated here;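 further: phosphodiesterase inhibitor Ro 20-1724 added with compounds to block cAMP breakdown; potency means the concentration at half of the fitted maximal effect; nearly all actives have a fitted effect of over 60% in size; about a fifth of the inactives were tested at one dose only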
#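 Cells in DMEM/10% FBS with G418 were pretreated with compounds in DMSO plus […] (300 uM stock) for 30 min at 37C. cAMP was measured by HTRF (cAMP-d2 plus anti-cAMP antibody-K) after 30 min at room temperature.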
# Starred values were filed as active, the others as inactive; ? = inconclusive; . = no result given; [ ] = remark or other dose.
Structure	Menin MLL FP FL	TRPML1 agonist	ClpP mod	gsp antagonist	TRPML1 inh	gsp ag
Cc1c(CC(=O)N[C@@H](C)C(=O)O)c(=O)oc2cc3oc4c(c3cc12)CCCC4	-2.5	3.0	-10%	3%	1	30%
CCCc1nc(Nc2nc3ccccc3o2)nc(C)c1C(=O)OCC	-0.9	0.9	-7.4%	-1%	-2	17%
O=C(N=C1c2ccccc2CN1c1ccccc1)c1cccc([N+](=O)[O-])c1	2.2	1.2	0.9%	-4%	7	-6%
C=C(C)C(=O)Nc1cccc(C2=NOC3(C2)C[C@H](C(N)=O)N(C(=O)CC#N)C3)c1 (some centres not stated)	-0.7	-1.1	-2.4%	11%	-1	.
CC(C)c1ccc(OCC(=O)Nc2cc(-c3nc4ncccc4o3)ccc2Cl)cc1	.	-0.2	-14%	.	5	.
Cn1c(C(=O)N[C@@H](Cc2ccccc2)C(=O)NCCC(=O)O)cc2cc(Cl)ccc21	22	1.6	.	5%	-11	2%
Cc1ccc(C)c(-c2cc(C(=O)NCc3cccs3)c3ccccc3n2)c1	4.3	1.9	-14%	-8%	20	21%
Cc1cccc(N2C(=O)N3[C@@H]4c5ccccc5OC[C@@H]4[C@@H](c4ccccc4)[C@@]3(C)C2=O)c1	2.6	1.2	-5.8%	-5%	31	-1%
COc1ccc(-c2nn(C)c(=O)c3ccccc23)cc1CNC(=O)c1ccco1	3.6	0.0	?	-16%	9	12%
NC(=O)CC[C@H](NC(=O)c1ccc(F)cc1)C(=O)OCC(=O)Nc1c(F)c(F)c(F)c(F)c1F	4.2	-0.4	-4.0%	3%	17	-52%[inhibitor]
CCN(CC)S(=O)(=O)c1ccc(S(=O)(=O)N2CCCC2C(=O)O)cc1 (configuration not stated)	-1.6	0.9	-1.8%	3%	1	6%
COc1ccc(OCCN2CCC(C(=O)NC(C)c3cccc4ccccc34)CC2)cc1 (configuration not stated)	.	-0.1	-2.2%	.	-7	.
O=C1NC(=O)C2(Br)Nc3ccc(Br)cc3C(=O)C2N1 (configuration not stated)	.	-0.4	.	-5%	0	25%
COCCn1c(Cc2ccccc2)nnc1SCC(=O)Nc1oc(C)c2c(C)n[nH]c(=O)c12	.	5.8	0.9%	-15%	-13	?
COc1cc2c(C(=O)Nc3ccccc3F)cn(C)c(=O)c2cc1OC	-11	2.7	-4.8%	7%	-16	-7%
CCN(C(=O)C(Cc1ccccc1)NS(=O)(=O)c1cccc2nsnc12)c1ccccc1 (configuration not stated)	.	0.1	-6.4%	.	24	.
Cc1[nH]c2ccccc2c1C(=O)COC(=O)C(C)C	1.7	0.7	-1.8%	5%	-13	-7%
CN=C(Nc1cccnc1)c1cccc(C(F)(F)F)c1	4.1	0.0	.	5%	40	0%
COc1cc(C(=O)Nc2cc(S(=O)(=O)N3CCOCC3)ccc2N2CCN(C)CC2)cc(OC)c1OC	.	1.6	-3.2%	9%	17	21%
CN1CCN(CCCNC(=O)c2ccc(CSCc3cccc(Cl)c3)o2)CC1	-1.7	0.1	14µM*	-2%	30	-29%
O=C1Nc2ccccc2C1=Nc1ccc(Cl)cc1	-7.0	-0.3	.	7%	-1	15%[15.4 µM]
O=C(CSc1nnc(-c2cccnc2)n1Cc1ccco1)c1ccccc1	4.2	0.1	-5.1%	-11%	10	0%[15.4 µM]
CCOC(=O)C1CCC/C1=N\NC(=O)CN(c1cc(OC)ccc1OC)S(=O)(=O)c1ccccc1 (configuration not stated)	-1.3	-1.9	-0.3%	-16%	0	-6%[15.4 µM]
Cc1ccc(C(=O)Nc2ccc(F)cc2F)o1	4.0	0.1	-0.4%	11%	-3	-7%
COc1ccc(C(C(=O)NC(C)(C)C)N(C(=O)CCC(=O)Nc2cc(C)on2)c2cc(C)cc(C)c2)cc1 (configuration not stated)	-3.4	-0.5	.	9%	11	-6%[15.4 µM]
CCOC(=O)Cc1csc(NC(=O)c2ccc3ncsc3c2)n1	.	-0.4	-2.7%	-5%	-5	-41%[inhibitor]
O=C(NCCCN1CCOCC1)C(C(=O)c1ccccc1)n1ccccc1=O (configuration not stated)	2.9	-0.7	0.0%	8%	-22	-24%
Cn1nc(-c2ccc(Cl)cc2)c2cc(C(=O)N3CCN(c4ccccc4)CC3)sc21	-2.4	0.1	-7.0%	-2%	17	20%
COc1cccc(C(=O)NCCS(=O)(=O)NCc2ccc3c(c2)OCO3)c1	.	1.7	-3.3%	6%	-13	-20%
Cc1ccc(C)c(SCC(=O)NC2CCS(=O)(=O)C2)c1 (configuration not stated)	.	0.8	-0.6%	3%	-20	25%[15.4 µM]

# Random excerpt: 2 compounds from above, in no set order.
Structure	Menin MLL FP FL	TRPML1 agonist	ClpP mod	gsp antagonist	TRPML1 inh	gsp ag
O=C(CSc1nnc(-c2cccnc2)n1Cc1ccco1)c1ccccc1	4.2	0.1	-5.1%	-11%	10	0%[15.4 µM]
CCOC(=O)C1CCC/C1=N\NC(=O)CN(c1cc(OC)ccc1OC)S(=O)(=O)c1ccccc1 (configuration not stated)	-1.3	-1.9	-0.3%	-16%	0	-6%[15.4 µM]

# (next part)
Structure	Menin MLL FP FL	TRPML1 agonist	ClpP mod	gsp antagonist	TRPML1 inh	gsp ag
O=C(Nc1ccccc1)c1ccccc1NS(=O)(=O)c1ccc(Cl)s1	4.9	0.7	-0.5%	?	1	-22%
COC(=O)[C@]12C(=O)C(C)=C(O)[C@@]1(C)C(C)=CC1[C@@]34CC[C@@H](OC(C)=O)C(C)(C)C3C(C[C@]12C)OC4=O (some centres not stated)	2.2	-0.1	1.5%	5%	29	-26%
CC(C)N(C)C1CCN(C(=O)Nc2ccc(Cl)cc2)CC1	1.8	0.7	-0.8%	6%	-23	-4%
Cc1ccc(-c2ccc(=O)[nH]n2)cc1	2.4	1.4	-24%	5%	1	0%
Cc1cc(N2CCC(C(=O)Nc3ccc(F)cc3F)CC2)n2nc(C)c(-c3ccc(Cl)cc3)c2n1	.	-0.7	?	.	-6	.
CSc1ccccc1C(=O)Nc1ncn[nH]1	-1.5	-0.6	0.7%	0%	-11	3%
COc1cccc(NC(=O)C2C3CCC4C(CCC32)C4(Cl)Cl)c1 (configuration not stated)	2.6	-0.1	-6.7%	-2%	39	13%
COC(=O)c1ccccc1NC(=O)COC(=O)c1ccccc1N=Nc1ccc(N(C)C)cc1	5.5	-0.1	-9.0%	-7%	-15	9%
Cc1ccc(-n2ncc3c(N4CCN(c5ccccc5)CC4)ncnc32)c(C)c1	6.9	2.1	8.7%	?	68	-51%[inhibitor]
O=c1c2ccccc2c(-c2ccccc2)nn1Cc1ccc(Cl)cc1	-0.9	0.1	-8.4%	0%	-3	-13%

# Some of these compounds in order of length of the SMILES, rising:
Structure	Menin MLL FP FL	TRPML1 agonist	ClpP mod	gsp antagonist	TRPML1 inh	gsp ag
Cc1ccc(-c2ccc(=O)[nH]n2)cc1	2.4	1.4	-24%	5%	1	0%
CC(C)N(C)C1CCN(C(=O)Nc2ccc(Cl)cc2)CC1	1.8	0.7	-0.8%	6%	-23	-4%
COC(=O)c1ccccc1NC(=O)COC(=O)c1ccccc1N=Nc1ccc(N(C)C)cc1	5.5	-0.1	-9.0%	-7%	-15	9%

# More results
Structure	Menin MLL FP FL	TRPML1 agonist	ClpP mod	gsp antagonist	TRPML1 inh	gsp ag
Cc1c(CCO)c(=O)n2c([nH]c3ccccc32)c1C#N	-0.7	1.3	3.6%	-13%	6	-1%
CC(=O)Oc1ccc(C(=O)Nn2cnnc2)cc1	.	0.7	0.1%	5%	10	-5%[15.4 µM]
Cc1cc(C(F)(F)F)nn1Cc1ccc(C(=O)NCc2ccco2)o1	12	0.0	-1.3%	-9%	-12	-2%
CCOc1ccccc1-c1cc(C(=O)Nc2ccc(C(=O)O)cc2)c2ccccc2n1	-8.4	-0.3	-3.3%	-16%	-22	18%
COc1ccc(S(=O)(=O)Nc2ccc(C)cn2)cc1	0.3	0.6	.	5%	45	18%
Cc1cc(O)c(-c2cc(C(=O)Nc3ccc(S(=O)(=O)N4CCOCC4)cc3)[nH]n2)cc1C	5.3	0.3	-4.8%	?	59	-9%
CCN(CC)C(=O)c1ccccc1NS(=O)(=O)c1ccc(OC)c(C(=O)N2CCOCC2)c1	3.2	-0.7	.	.	27	-6%[15.4 µM]
CC1CCCC(NC(=O)CSc2n[nH]c(N)n2)C1C (configuration not stated)	.	1.2	-0.7%	0%	25	0%[15.4 µM]
O=C(COC(=O)c1ccc(Cl)nc1)Nc1ccc(S(=O)(=O)N2CCCC2)cc1	7.3	-0.6	.	-2%	-8	-4%
CC(NC(=O)C(NC(=O)C1CCCN1C(=O)OC(C)(C)C)C(C)C)C(N)=O (configuration not stated)	3.0	0.3	-0.6%	3%	-15	-18%
Cc1ccccc1NC(=O)Nc1ccc2c(c1)OCO2	5.1	7.6	-0.2%	4%	11	?
CCCC(=O)N(Cc1cc(=O)[nH]c2ccccc12)c1ccc(C)cc1C	6.1	5.2	-13%	-13%	8	-12%
COCc1ccc(C(=O)NC(C)c2cnn(-c3ccccc3C)c2C)o1 (configuration not stated)	1.0	-1.2	.	8%	2	-3%[15.4 µM]
COc1cc(C)c(S(=O)(=O)NCc2cccnc2)cc1C	-6.3	-1.0	0.6%	-1%	-1	4%
Cc1ccc(-c2nc(N3CCOCC3)sc2C(=O)N2CCOCC2)cc1	-1.7	-0.5	-3.1%	4%	-11	14%
CCOc1cc(CNCc2cccs2)cc(Br)c1OCC	-1.2	2.7	-0.6%	7%	?	-2%
CC(C)(C)c1ccc(C(=O)N2CCN(C(=O)C3CCCCC3)CC2)cc1	.	0.3	0.7%	8%	-3	-8%[15.4 µM]
Cn1nccc1C(=O)NCc1ccc2c(c1)CCN2C(=O)c1ccccc1	.	-0.1	0.8%	.	-1	.
O=C(NC1CCOCC1)C1CCC(=O)N(CCc2cccc(F)c2)C1 (configuration not stated)	.	-0.3	-0.7%	16%	5	-46%[inhibitor]
O=C(Nc1cccc(S(=O)(=O)NC2=NCCC2)c1)c1cn(-c2ccccc2)nc1-c1ccc(F)cc1	.	0.0	-12%	-28%	-12	-16%
OC(c1cccc(Cl)c1)c1nc(-c2cccc3cccnc23)cs1 (configuration not stated)	.	-0.2	-25%	.	-6	.
CC(Oc1ccc(F)cc1)C(=O)Nc1ccccc1N1CCCCC1 (configuration not stated)	.	22	2.6%	-3%	-14	-6%
O=C1NC(c2ccc(Cl)cc2)Nc2ccccc21 (configuration not stated)	-0.1	-0.2	.	.	4	-1%[15.4 µM]
O=C(COc1ccccc1Cl)Nc1cccc(S(=O)(=O)N2CCCC2)c1	.	2.4	-2.5%	-21%	15	1%
O=[N+]([O-])c1cc(F)c2cccnc2c1O	?	2.0	1.4%	-4%	-17	-65%[inhibitor]
